AF4-AF9 inh – inhibitors of human MLL-AF4/AF9 interaction | hit rate 0.47% among 350,000 | inhibition, % at 10 µM | AlphaScreen, biotin-AF4 peptide binding to FLAG-AF9 | P42568 | AID 651704;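 active = every replicate reaching a set inhibition limit, whatever the replicate mean, cut at about 25% in these data; inconclusive = mean inhibition reaches that limit but some replicates miss it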;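 note: 0% = plate neutral control median and 100% = total signal loss; the record names both 10 and 1 µM as test concentration; the first replicate is given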
Target sequence (P42568 whole entry, looked up): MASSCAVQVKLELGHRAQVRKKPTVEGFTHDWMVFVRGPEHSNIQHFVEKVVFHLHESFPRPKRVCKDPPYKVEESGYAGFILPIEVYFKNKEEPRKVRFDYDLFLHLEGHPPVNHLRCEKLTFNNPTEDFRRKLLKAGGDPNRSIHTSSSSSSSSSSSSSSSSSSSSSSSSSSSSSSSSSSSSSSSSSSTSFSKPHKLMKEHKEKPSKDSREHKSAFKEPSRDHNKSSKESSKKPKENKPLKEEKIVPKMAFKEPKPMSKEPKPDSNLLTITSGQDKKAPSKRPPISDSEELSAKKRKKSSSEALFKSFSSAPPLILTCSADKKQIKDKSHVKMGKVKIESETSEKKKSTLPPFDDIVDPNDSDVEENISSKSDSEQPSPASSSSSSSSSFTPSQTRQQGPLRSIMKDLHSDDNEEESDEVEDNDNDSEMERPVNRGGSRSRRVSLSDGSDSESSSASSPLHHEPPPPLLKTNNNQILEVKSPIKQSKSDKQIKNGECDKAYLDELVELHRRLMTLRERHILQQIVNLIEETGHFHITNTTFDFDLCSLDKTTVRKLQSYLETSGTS
FGF22 binding – FGF22 (human) thermal shift binding. Q9HCT0. recombinant FGF22 thermal shift, SYPRO orange fluorescence; percent of sucrose octasulfate shift, DMSO zero. calls only at 9.99 µM. hit rate 1.5% among 340,000. AID 651658;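 active = melting point raised past a set limit in the mean and every replicate; inconclusive = no clear call; three in four hits are not shown here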
Target sequence (Q9HCT0 whole entry, looked up): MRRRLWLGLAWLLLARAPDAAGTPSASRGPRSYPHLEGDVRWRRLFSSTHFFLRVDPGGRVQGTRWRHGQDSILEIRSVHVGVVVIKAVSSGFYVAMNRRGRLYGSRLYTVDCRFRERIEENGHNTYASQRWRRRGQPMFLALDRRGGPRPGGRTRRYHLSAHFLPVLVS
T cruzi inh – T. cruzi replication inhibition | hit rate 1.4% among 300,000 | T. cruzi beta-gal in NIH3T3, luminescence, 90 h | inhibition, % (test concentration not listed);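 active = mean inhibition across valid replicates above about 55%, limit read from the data; inconclusive = mean below that limit but half or more replicates reach it; inactive = mean below it, under half of replicates reach it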;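 note: signal also drops with host cell toxicity which is not excluded here; 0% = plate median of DMSO wells and 100% = zero luminescence signal; higher percent means less beta-gal luminescence so fewer parasites; stock transfer was 50 nL into about 50 µL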
RanGTP-Impb inh – inhibitors of RanGTP-importin-beta interaction, primary screen, biochemical, FRET, CFP-Ran, YFP-importin-beta, homogeneous. cell-free CFP-Ran/YFP-importin-beta FRET ratio. hit rate 1.1% among 300,000. AID 2216. inhibition, % (concentration not given with the values);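 active = most replicates above 15%; inconclusive = exactly half above 15%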;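 note: 0% = DMSO wells and 100% = Ran loaded with GDP instead of GTP; wells of about 40 µL received 100 nL stock; the first replicate is given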
Beta cell apopt – blocks beta cell apoptosis | INS-1E cytokine-induced death, ATP luminescence, 48 h; percent of positive-control rescue, neutral wells zero | protection from apoptosis, % (test concentration not listed) | hit rate 0.8% among 300,000 | AID 435005;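 active = all replicates at 75% or more, or half of them and the mean; inconclusive = half reach 75% but not the mean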;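 note: 0% = cytokine-treated negative control wells and 100% = positive control rescue; higher means more ATP so stronger rescue from cytokine killing; wells of about 40 µL received 100 nL stock; the first replicate is given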
Ecoli rRNA inh – inhibits bacterial ribosomal RNA function over humanized ribosomes. E. coli WT GFP vs humanized-ribosome RFP mutants, fluorescence, 24 h; stronger effect = lower value; DMSO median 0, no signal -100. GFP signal change (wild-type ribosome), % (test concentration not listed). hit rate 1.6% among 350,000. AID 720706;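 active = significant combined selectivity score with lowered wild-type GFP, culture density cut under 30%, mutant RFP and density less affected; inactive = any of these conditions unmet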; note: one replicate is shown; some compounds called inactive have numbers as strong as hits
ALR H2O2 inh – blocks human ALR sulfhydryl oxidase activity; purified ALR, DTT oxidation, H2O2 HRP-luminol luminescence; inhibition, % (no concentration beside the values); hit rate 3.8% among 290,000;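 active = mean and each replicate at 75% or more; inconclusive = only one of the two met; inactive = neither met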;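 note: stock transfer was 7.5 nL into about 7.5 µL; 0% = neutral wells and 100% = wells with inactivated enzyme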
Target sequence (P55789 whole entry, looked up): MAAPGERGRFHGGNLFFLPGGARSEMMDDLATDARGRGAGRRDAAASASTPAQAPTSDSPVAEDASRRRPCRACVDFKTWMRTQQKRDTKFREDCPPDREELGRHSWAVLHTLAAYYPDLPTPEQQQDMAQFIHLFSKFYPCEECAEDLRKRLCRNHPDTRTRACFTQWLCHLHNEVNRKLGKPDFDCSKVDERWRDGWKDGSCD
Calb FLC – affects C. albicans growth with fluconazole; C. albicans CaCi-2 (fluconazole-resistant clinical isolate) + fluconazole, Alamar Blue growth, 48 h; growth inhibition, % (concentration not given with the values); hit rate 0.57% among 300,000; AID 1979;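 active = most replicates above 75%; inconclusive = exactly half above 75%; inactive = most below 75%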;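 note: all wells also contain fluconazole at 8 µg/ml as a sub-toxic cotreatment; 0% = median of DMSO wells and 100% = median of geldanamycin control wells; wells of about 8 µL received 7.5 nL stock; the first replicate is given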
Ecoli rRNA inh OD600 – further read-out of Ecoli rRNA inh, marked with its call; OD600 change, %; measured here: OD600 growth;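 optical density of the mix in the first replicate; 0 = DMSO median and -100 = no signal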
Ecoli rRNA inh RFP – further read-out of Ecoli rRNA inh, marked with its call; RFP signal change, %; measured here: RFP humanized mutant strains;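 first replicate; 0 = DMSO median and -100 = no signal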
* marks the source's active call; other numbers are inactive results; i = inactive; u = inconclusive; x = not tested or not shown; & = joins results of further samples. These rows are one share of the data; the hit share may differ from the screen's.

SMILES	AF4-AF9 inh	FGF22 binding	T cruzi inh	RanGTP-Impb inh	Beta cell apopt	Ecoli rRNA inh	Ecoli rRNA inh OD600	Ecoli rRNA inh RFP	ALR H2O2 inh	Calb FLC
O=C(Nc1cccc2ncccc12)c1ccc(Br)c([N+](=O)[O-])c1	-0.1	i	13	-2.5	3	16	15	-1.2	-28	1
N=c1c2c3c(sc2ncn1Cc1ccco1)CCCCC3	x	x	5	-1.9	-6	x	x	x	92*	-4
Cc1cccc(C)c1NC(=O)CSc1nnc([C@H](C)NC(=O)OC(C)(C)C)o1	x	x	5	-2.3	0	x	x	x	-1	-5
COc1ccc(N(CC(=O)NCc2ccco2)S(=O)(=O)c2ccc(C)cc2)cc1OC	1.3	i	19	-2.7	-10	8	7	-1.9	x	0
Cc1cccc(Nc2nc(-c3c(C)nc4ccccn34)cs2)c1	x	x	-15	1.9	x	x	x	x	40	u
CCC1=NN2C(=N)/C(=C\c3cccn3-c3ccc(C)c(C)c3)C(=O)N=C2S1	0.3	i	-14	2.0	9	-22	-32	-5.7	-1	4
COc1ccc(Cl)cc1C(=O)NCC(c1ccco1)N1CCCC1 (centres undefined)	x	x	23	3.9	1	x	x	x	-5	0
COc1cc(C(=O)N2CCN(C(=O)c3cccc4ccccc34)CC2)cc(OC)c1OC	0.5	i	10	-3.0	-5	-27	-42	-4.5	-1	2
Cc1cc(NS(=O)(=O)c2ccc(Nc3nc(-c4ccc(C)c(C)c4)cs3)cc2)no1	x	x	-8	-1.8	0	x	x	x	31	13
CNC(=O)C(=O)NCCN1CCN(S(=O)(=O)c2ccc3ccccc3c2)CC1	-0.1	i	-7	1.9	-4	1	7	0.3	2	10
O=C(O)c1cccc(-n2sc3ccccc3c2=O)c1	-22	i	x	x	-16	12	13	16	57	x
C=CCn1cc(C(=O)NCCCOC)c(=O)c2cc(S(=O)(=O)N(CC)CC)ccc21	x	x	11	-2.4	7	x	x	x	x	-2
C=CCn1c(=S)[nH]c2ccc(Br)cc2c1=O	x	x	-21	3.2	3	x	x	x	-7	x
CC1(c2ccc([N+](=O)[O-])cc2)NC(=O)NC1=O (centres undefined)	-4.2	i	-13	0.3	-5	22	25	6.5	-8	31
N#Cc1ccc(OCC(=O)OCC(=O)NCCC2=CCCCC2)cc1	x	x	-5	u	-5	x	x	x	0	-7
Cc1ccc(Cl)c(OCC(=O)NC2CCN(Cc3ccccc3)CC2)c1	1.7	i	46	4.7	1	7	1	1.6	0	0
COc1ccccc1OCCOCCOc1c(C)cc(C)cc1Br	-11	i	5	0.1	-1	-13	-11	-2.6	x	5
CC(=O)N1CCN(C(=O)c2ccc3c(c2)OCO3)CC1	-1.8	i	x	x	-8	x	x	x	2	x
Cc1ccc(-c2nc(N)nc(N)n2)c(C)c1	-7.3	i	x	x	0	3	5	-9.6	x	x
COC(=O)c1ccc(NC(=O)c2cn(-c3ccccc3)nc2-c2ccncc2)cc1	x	x	56*	-0.4	-2	x	x	x	-5	-14
COc1ccccc1CCC(=O)OCC(=O)NCc1ccc(OC)c(OC)c1	-1.2	i	x	x	-3	7	13	-0.4	-2	x
COc1ccc([C@H]2CC(=O)C=C(c3cc4ccccc4s3)C2)cc1OC	0.5	i	x	x	-5	1	5	-2.3	2	x
CCCN1CCN(C(=O)Cn2ncc3c([nH]c4ccc(C)cc43)c2=O)CC1	-11	i	-2	u	-9	-2	13	-3.7	-2	-20
CC(C)Oc1ccc(NC(=O)CCC(=O)O)cc1	x	x	3	2.5	-6	x	x	x	-3	-3
COc1cccc(C(c2nnnn2Cc2ccco2)N2CCN(Cc3ccccc3)CC2)c1OC (centres undefined)	4.1	x	1	-0.9	x	-1	2	2.1	-2	0
CCn1c(CNC(=O)C2CCCCC2)cc2cc(C)ccc21	0.1	i	-11	-0.6	6	8	13	2.9	3	-1
O=C(CCC(=O)c1ccc(F)cc1)NCc1ccccc1C(F)(F)F	-2.1	i	0	1.6	-3	1	5	-1.2	-6	-2
COc1ccc(-c2nnc(NC(=O)Cc3ccccc3)s2)c(OC)c1	-39	i	-11	u	-3	3	3	-5.3	x	-4
O=C(NC1CC1)C1=C[C@@H](c2ccc(Br)cc2)C[C@@H](OCCCCO)O1	-1.4	i	3	2.8	5	-19*	-1.5*	-6.4*	-12	11
COc1cc(/C=C/C(=O)N2CCN(c3ccccn3)CC2)cc(OC)c1OC	-0.2	i	-1	-0.5	-3	-2	6	-0.8	-6	-11
O=C(NCc1ccco1)c1cccc(NC(=O)c2ccccc2)c1	x	x	9	2.5	-5	x	x	x	-12	3
CC(=O)Nc1c(C(=O)c2ccccc2)oc2ccccc12	x	x	1	5.5	2	x	x	x	x	0
CCOc1ccc(-c2nonc2NC(=O)c2ccco2)cc1OCC	-2.9	i	8	-1.8	-14	3	8	-3.2	-51	32
CSCc1c(C(=O)Nc2ccccc2N2CCOCC2)oc2ccccc12	3.2	i	x	x	0	15	0	2.4	-5	x
CC(C)c1ccc(NC(=O)NCc2ccc3c(c2)OCO3)cc1	0.7	i	7	-2.9	0	2	6	-2.6	-6	-9
Cc1ccc(CC(=O)O/N=C(\N)Cc2ccc([N+](=O)[O-])cc2)cc1	-3.1	i	4	-1.6	-2	-2	-3	-0.8	35	-21
O=c1cc(O)n(-c2ccc(Cl)cc2)c(=S)[nH]1	x	x	-7	3.5	x	x	x	x	57	-2
O=C(CSc1ncc(C(F)(F)F)cc1Cl)N1CCNC1=O	0.7	i	x	x	-6	2	1	1.0	-31	x
COc1ccccc1N1CCN(CC(=O)c2ccc(F)cc2)CC1	3.6	i	3	4.3	-8	18	11	2.3	7	-34
NC1=NC(=O)/C(=C\c2cccs2)S1	x	x	-11	-3.8	-2	x	x	x	0	-5
CN1CCc2c(c3c(n2C)CCN(C)[C@@H]3c2cccnc2)[C@H]1c1cccnc1	-7.1	i	-29&-6	4.7&2.8	-2&-4	9	4	0.3	-9&13	-13&23
Clc1cc(Br)ccc1OCCOCCN1CCOCC1	x	x	44	0.2	-1	x	x	x	0	7
CC(=O)Nc1cccc(C(=O)Nc2ccc(S(=O)(=O)N3CCCCC3)cc2)c1	-0.8	x	9	u	x	-10	-1	1.7	-7	1
Cc1cccc(C)c1NC(=O)c1cccc(N2C(=O)C3CCC(C)CC3C2=O)c1 (centres undefined)	0.2	i	-7	x	-1	7	13	1.8	-4	x
CCc1ccc(N(C(=O)CNC(=O)c2ccco2)C(C(=O)NC2CCCC2)c2cccnc2)cc1 (centres undefined)	-1.7	i	-4	6.0	-6	5	7	-1.3	2	9
C[C@H]1CN=C(N(C)C)N1CC1CCCCC1	-3.5	i	x	x	-2	9	3	2.1	x	x
CCOc1ccc(NC(=O)NCCCN2CCCC2)cc1	x	x	0	-4.7	-7	x	x	x	-7	3
COc1ccccc1N1CCN(C(=O)c2cc3sccc3n2C)CC1	x	x	5	8.0	-8	x	x	x	-5	10
CC1(C)Cc2c(cnn2-c2ccc(F)cc2)C(NC(=O)c2ccoc2)C1 (centres undefined)	-0.8	i	6	21	-2	0	-2	1.2	-2	12
CC(NC(=O)c1ccc(N(C)C)cc1)C(c1cccs1)N1CCN(C)CC1 (centres undefined)	x	x	-11	4.9	x	x	x	x	78*	5
CCCN(C(=O)CCNC(=O)Cn1cnc2ccccc2c1=O)c1cccc(C)c1	1.5	i	10	6.8	1	1	0	-1.0	0	-10
COc1cc(C(=O)Nc2ccc(OCC(=O)N3CCOCC3)cc2C)cc(OC)c1OC	0.0	i	-12	-4.2	2	x	x	x	-3	1
COc1cc(C#N)ccc1OCC(=O)c1ccc2c(c1)OCCO2	x	x	19	-0.5	-7	x	x	x	-6	1
CC(C)c1nnc(SCC(=O)NCCC2=CCCCC2)n1N	x	x	-6	4.9	-10	x	x	x	31	-9
CC(C)CCN1CCN(Cc2nc3ccccc3s2)CC1CCO (centres undefined)	8.3	i	44	-5.8	-2	6	3	-2.1	x	0
CCCC(CCC)C(=O)NCCN1CCOCC1	x	x	3	12	-7	x	x	x	-8	0
FC(F)(F)c1nnc2ccc(-n3ccnc3)nn12	-0.3	i	-9	-0.1	-9	1	2	-2.1	-13	-4
O=C(NCc1ccccc1Cl)C1CCN(S(=O)(=O)N2CCCCCC2)CC1	x	x	-6	-2.8	7	x	x	x	-3	-19
O=C(CCS(=O)(=O)c1ccccc1)Nc1nc2ccc(F)cc2s1	-12	i	19	-0.8	-5	1	-3	-2.2	4	0
CCCn1c(C)cc(C(=O)COc2ccc(C)nc2[N+](=O)[O-])c1C	5.3	i	21	u	13	x	x	x	x	1
Continued.
SMILES	AF4-AF9 inh	FGF22 binding	T cruzi inh	RanGTP-Impb inh	Beta cell apopt	Ecoli rRNA inh	Ecoli rRNA inh OD600	Ecoli rRNA inh RFP	ALR H2O2 inh	Calb FLC
CCc1cccc(N(CC(=O)NCc2ccc(F)cc2)C(=O)c2csnn2)c1	-4.3	i	1	-2.1	-3	-8	-12	-3.6	3	31
CCC(=O)c1c[nH]c(C(=O)NCc2cccs2)c1	1.9	i	9	-3.7	3	15	23	-2.5	-5	4
COc1ccc(C(C)=O)cc1CSc1nnc(Nc2ccccc2C)s1	x	x	14	2.1	9	x	x	x	-9	-13
Cc1ccccc1NC(=O)Cc1nc(COC(=O)c2ccc(C(F)(F)F)cc2)cs1	-2.3	i	x	x	1	-5	11	-3.3	x	x
CC(C)c1cn(C2OC(COC(=O)c3ccccc3)C(OC(=O)c3ccccc3)C2OC(=O)c2ccccc2)c(=O)[nH]c1=O (centres undefined)	x	x	-3	-4.6	5	x	x	x	-9	-6
O=S(=O)(c1ccc(F)cc1)N1CCCN(Cc2c(F)cccc2F)CC1	0.1	i	0	0.0	0	-14	-7	2.1	-4	-6
CCOC(=O)c1c(C)[nH]c(C)c1S(=O)(=O)N1c2ccccc2CC1C (centres undefined)	2.8	i	14	4.0	-2	-7	-16	2.9	1	15
COc1ccc(N2CCN(CC(O)COC(C)(C)C)CC2)cc1 (centres undefined)	-7.7	i	-6	u	-6	5	-2	-8.5	45	-2
O=C(NCCN1C(=O)S/C(=C\c2cccc(Cl)c2Cl)C1=O)C1=COCCO1	2.9	i	-1	13	-7	-19	-39	3.9	-1	5
O=C1c2cccc([N+](=O)[O-])c2C(=O)N1c1cccnc1	2.2	i	-10	-0.5	-4	9	5	-0.4	2	-4
COc1ccccc1/C=N/NC(=O)COCC(=O)N/N=C/c1ccccc1OC	1.3	i	-31	-3.6	x	0	3	-2.0	-2	-1
O=C(NCC1(O)CCCCC1)C1CCC(=O)N(Cc2cccc(C(F)(F)F)c2)C1 (centres undefined)	-1.7	i	-6	u	-1	-4	3	-4.0	-5	-1
COc1ccc(S(=O)(=O)N2CCN(C(=O)NC3CCCCC3)CC2)cc1	-1.7	i	-7	1.8	-6	12	4	1.9	2	1
CC1(C)N=C(N)N=C(N)N1c1ccc(C(=O)O)cc1	x	x	-15	-2.4	-1	x	x	x	-20	-4
CNC(=O)COc1coc(CN2CCN(c3ccc(OC)cc3)CC2)cc1=O	1.5	i	-6	3.1	x	8	13	-1.1	35	4
